# GIV-Gai inh = blocks GIV peptide binding to rat Galpha-i3 | P08753 | Galpha-i3/FITC-GIV peptide fluorescence polarization, 90 min; active compounds read low; scaled: aluminum fluoride 0%, vehicle 100% | percent of control (FP), % (concentration not given with the values) | hit rate 0.42% among 210,000;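 active means replicate mean at 85% of control or lower, very high polarization wells dropped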;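 further: wells of about 15 µL received 100 nL stock; the first replicate is given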
# Target sequence (P08753 whole entry, looked up): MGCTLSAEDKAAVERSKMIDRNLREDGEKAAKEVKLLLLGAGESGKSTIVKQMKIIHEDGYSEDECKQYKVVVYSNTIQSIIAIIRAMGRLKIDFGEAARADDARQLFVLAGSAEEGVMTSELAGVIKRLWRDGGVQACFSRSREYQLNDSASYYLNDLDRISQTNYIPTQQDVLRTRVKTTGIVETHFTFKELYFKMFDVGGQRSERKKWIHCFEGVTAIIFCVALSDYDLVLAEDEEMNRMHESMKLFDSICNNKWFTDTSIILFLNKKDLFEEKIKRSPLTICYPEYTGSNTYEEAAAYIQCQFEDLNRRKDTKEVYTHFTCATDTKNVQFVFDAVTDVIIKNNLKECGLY
# HCMV UL50-53 inh = disrupts HCMV UL50-UL53 complex binding; hit rate 0.15% among 190,000; HTRF UL50-UL53 interaction, normalized percent inhibition; inhibition, % (test concentration not listed);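 active means both replicates at 50% or more, plus weaker picks with an unusually low signal ratio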;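 further: stock transfer was 100 nL into about 20 µL; 0% = negative control wells and 100% = wells with untagged competitor protein; inactives centre near -12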
# Sa growth inh = inhibitors of Staphylococcus aureus growth at 42 °C. S. aureus RN4220 growth, OD600, 20 h; active compounds read low. hit rate 0.53% among 170,000. AID 720641. relative growth, % (concentration not given with the values);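 active means growth at 42 °C up to 50% and 20 or more points under that at 30 °C, or under 10% at both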;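 further: 300 nL library stock went into each well; scaled to the means of positive and negative controls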
# Sa growth inh second temp = second read-out of Sa growth inh, no call of its own (marks repeat the call); relative growth, %; measured here: growth at 30 °C;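 optical density after 20 h as mean of two plates; 100% = untreated growth and lower means inhibition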
# Numbers without * were called inactive; nt = no result given.
Molecule,GIV-Gai inh,HCMV UL50-53 inh,Sa growth inh,Sa growth inh second temp
Cc1ccc(NC(=O)CSc2ncn(-c3ccccc3)n2)cc1,nt,-2.0,96.0,97.6
Cc1cc(C)c(N(CC(O)Cn2c3ccccc3c3ccccc32)S(C)(=O)=O)c(C)c1 (configuration not stated),98.9,nt,106.9,30.0
Cc1cccc(N(C)S(=O)(=O)c2c(C(=O)N3CCCCC3)c(C)n(C)c2C)c1,102.2,-13.2,116.2,86.2
COc1ccc2c(c1)c(CC(=O)Nc1nnc(-c3ccccc3)o1)c(C)n2C(=O)c1ccc(Cl)cc1,nt,-6.9,100.7,91.1
CCN=C1S/C(=C\c2cn(CC(=O)Nc3cccc(C)c3)c3ccccc23)C(=O)N1CC,107.6,nt,84.8,73.6
COc1ccc(Cc2nnc(SCC(N)=O)n2Cc2ccccc2)cc1,96.6,-5.3,100.4,100.6
Fc1cccc(-c2nnc3sc(CCCc4ccccc4)nn23)c1,104.5,-4.4,nt,nt
COc1ccc(-c2nnc(SCC(N)=O)n2C2CCCCC2)cc1OC,nt,-20.6,96.7,99.7
Cc1cccc2sc(N(Cc3cccnc3)C(=O)CCc3ccccc3)nc12,105.9,nt,84.6,91.8
CCC1(CC)Cc2ccccc2C(C2=C(O)CCCC2=O)=N1,102.1,12.5,88.1,106.2
Cc1cccc(NC(=O)CCCN2CCSc3ccccc32)c1C,104.6,11.9,nt,nt
CCC1(C)Cc2ccccc2-c2c1c(=O)n(-c1ccc(C)cc1)c1nncn21 (configuration not stated),101.9,nt,106.7,95.5

# Going on with the list:
Molecule,GIV-Gai inh,HCMV UL50-53 inh,Sa growth inh,Sa growth inh second temp
O=C(Nc1sc2c(c1C(=O)NCc1cccnc1)CCCC2)c1cc(=O)c2ccccc2o1,102.7,-20.4,101.4,88.1
CC(C)CC(CCC(=O)Nc1nccs1)C(=O)O (configuration not stated),105.7,-15.9,nt,nt
COc1ccc(-c2nc(CNS(=O)(=O)c3ccc(C)cc3)cs2)cc1,99.7,-4.7,110.7,90.5
CCc1c(SCC(=O)O)nc2ccccc2c1C,97.9,-1.3,89.2,83.6
CN(C(=O)C1CCCN(S(=O)(=O)c2cccc3nsnc23)C1)c1ccc(Br)cc1 (configuration not stated),101.8,-109.1,91.0,91.4
CCCNC(=O)CN1CCN(c2ccc(NC(=O)c3ccc(OC)cc3)cc2C(=O)O)CC1,106.1,nt,123.0,89.4
Cn1c(=O)n(-c2ccc(F)cc2)c2nc(-c3ccc(Br)cc3)nc(C(N)=O)c21,101.4,-15.9,nt,nt
CC1(C)CCC(NC(=O)[C@@H](N)CCC(=O)O)CC1,99.6,-23.5,nt,nt
CCn1c(=O)cc(OCC(=O)Nc2cccnc2)c2ccccc21,98.4,-10.7,96.7,85.2
CCOc1ccc(-n2c(SCC(=O)Nc3cc(C)on3)nc3c([nH]c4ccccc43)c2=O)cc1,99.8,nt,111.6,90.5
CCC(=O)Nc1cccc(Oc2nc(C)cc(C)c2C#N)c1,nt,-5.6,86.3,71.9
CCCCN(CC)C(=O)c1cn(CC)c(=O)c2cc(OC)c(OC)cc12,101.7,nt,92.9,84.9

# Next part:
Molecule,GIV-Gai inh,HCMV UL50-53 inh,Sa growth inh,Sa growth inh second temp
C=CCn1c(SCC#N)nnc1-c1ccc(Br)cc1,nt,-22.2,102.0,92.2
COCCn1c(CN2CCN(C(=O)Nc3cc(Cl)ccc3C)CC2)nc2ccccc2c1=O,106.3,-17.4,nt,nt
COc1ccc(-c2cc3c(=O)n(CC(=O)N4CCN(c5cccc(C)c5C)CC4)ncn3n2)cc1,97.2,-15.3,nt,nt
COc1ccc(-c2c(C)nn3c(N4CCC(C(=O)NC5CC5)CC4)cc(C)nc23)cc1OC,101.1,-18.5,nt,nt
O=C(NCC(c1ccco1)N1CCCC1)c1ccc2ccccc2n1 (configuration not stated),nt,-23.2,94.1,86.4
COc1ccc(N2CCN(CCCNC(=O)Cn3c(-c4cccs4)cc4ccccc43)CC2)cc1,109.9,nt,112.2,105.5
O=C(CC(NCc1cccnc1)C(=O)O)Nc1ccc(O)cc1 (configuration not stated),106.6,-3.1,103.9,89.5
Cc1cc(C)nc(NS(=O)(=O)c2ccc(NC(=O)CSc3nc(-c4ccccc4)cc(C(F)(F)F)c3C#N)cc2)n1,102.0,-2.3,nt,nt
CCC(=O)Nc1ccccc1-c1nnc(SC(C)C(=O)Nc2ccccc2Cl)[nH]c1=O (configuration not stated),95.0,-9.0,nt,nt
Cc1ccc(CNC(=O)c2ccc(CSc3nc4ccncc4n3Cc3ccc(C)cc3)cc2)cc1,108.6,3.6,83.6,91.1
O=C(NCCCc1ccccc1)C1c2ccccc2-c2ccccc21,nt,1.0,108.9,90.3
COc1ccccc1NC(=O)c1oc2ccccc2c1NC(=O)C1CCCCC1,104.7,-9.9,114.9,88.0

# Following part:
Molecule,GIV-Gai inh,HCMV UL50-53 inh,Sa growth inh,Sa growth inh second temp
O=C(NC1CC1)c1cc2n(n1)CCCN(Cc1ccccc1)C2=O,107.8,2.9,104.1,98.9
CCOC(=O)c1c(C)oc2nc(CN3c4cccc5cccc(c45)S3(=O)=O)nc(N)c12,nt,1.1,92.0,96.8
CC1CCCCN1C(=O)C12CC3CC(CC(C3)C1)C2 (configuration not stated),100.5,2.1,124.2,100.9
COc1ccc(NCc2nc(-c3ccc(C)cc3)no2)cc1OC,108.0,-10.2,104.4,94.4
CCC(C)NC(=O)c1sc2nc3n(c(=O)c2c1C)CCC3 (configuration not stated),97.5,-15.4,105.4,94.2
CCn1cc(C(CNC(=O)Nc2ccc(Br)c(C)c2)c2cccnc2)c2ccccc21 (configuration not stated),101.4,-22.4,nt,nt
CCCN(CCC)S(=O)(=O)c1ccc(C(=O)Nc2c3c(nn2-c2ccccc2C)CSC3)cc1,103.6,-17.0,nt,nt
CCCC1c2ccsc2CCN1C(=O)c1cc(OC)cc(OC)c1 (configuration not stated),103.1,-14.2,107.1,104.4
COc1ccc(NC(=O)c2ccco2)cc1NC(=O)COc1cc(C)ccc1C(C)C,109.0,-13.7,103.2,81.7
Cc1nc(C(F)(F)F)ccc1C(=O)NN1CCOCC1,101.0,-31.7,96.9,84.0
Cc1ccccc1-c1noc(CCC(=O)NC(C)C)n1,104.5,-13.9,82.9,89.6
COc1ccc(NCC(=O)n2c(C)c(C)c3ccccc32)cc1,nt,-14.9,120.5,94.1

# (further entries)
Molecule,GIV-Gai inh,HCMV UL50-53 inh,Sa growth inh,Sa growth inh second temp
O=C(O)/C=C/C(=O)NC1Cc2ccccc2C1,97.0,-20.4,104.9,85.5
COC(=O)c1cnc(N2CCN(c3ccc(F)cc3)CC2)c2ccccc12,99.8,nt,88.6,92.3
N#Cc1cccc(NC(=O)/C=C/c2cccc3ccccc23)c1,nt,0.3,97.2,88.5
Cc1ccccc1-n1nnnc1SCC(=O)N/N=C/c1ccccc1O,nt,-29.3,108.0,92.9
CCC(Oc1ccccc1)C(=O)Nc1nncs1 (configuration not stated),nt,-18.4,90.7,82.0
COC(=O)C1=C(C)NC2=C(C(=O)c3ccccc32)C1c1ccc(Br)o1 (configuration not stated),111.2,-51.5,92.5,69.5
CC(C)c1ccccc1N=Cc1ccc2c(c1)OCO2,nt,-16.7,93.4,82.4
CC(=O)Nc1ccc(NC(=O)C(C)n2c(C)c3cnn(-c4ccccc4)c(=O)c3c2C)cc1 (configuration not stated),101.2,-0.9,97.6,78.8
COc1ccc(OC(C)C(=O)NCc2nc(-c3ccc(Cl)cc3)no2)cc1 (configuration not stated),108.0,17.6,112.3,78.0
O=C1c2ccccc2C(=O)N1CCc1nn[nH]n1,100.9,-29.1,95.5,82.3
S=C(NC1CCCCC1)N1CCN(Cc2ccc3c(c2)OCO3)CC1,nt,-20.5,94.9,93.5
Cc1onc(-c2ccccc2)c1C(=O)Sc1ccc(C(F)(F)F)cn1,103.4,-36.6,46.9,47.7

# The listing continues.
Molecule,GIV-Gai inh,HCMV UL50-53 inh,Sa growth inh,Sa growth inh second temp
O=C(c1ccccc1Cl)N1CCN(c2ccc(N3CCCCCC3)nn2)CC1,105.2,-70.4,108.2,94.2
COc1ccc(-c2cc(=Nc3ccc(C)cc3C)c3cc(O)ccc3o2)cc1,74.6*,nt,112.5,80.1
COc1ccc(C(=O)N(CN2CCCC2=O)c2nccs2)cc1OC,100.0,-32.0,89.1,74.8
CCOc1ccc(CCNC(=O)CSc2nc3ccccc3nc2Cc2ccc(C)cc2)cc1OCC,111.3,-79.1,nt,nt
CN1CCCN(C(=O)CCc2cn(C)nc2-c2ccc(F)cc2)CC1,97.9,-10.2,nt,nt
CCOC(=O)c1cc(-c2ccccc2)n(-c2cccc(C(=O)Nc3cccc(F)c3)c2)c1C,102.4,nt,112.5,97.6
CCCS(=O)(=O)N1CCCC1c1ccc(Cl)cc1 (configuration not stated),105.2,-23.3,nt,nt
Cc1cc(-c2nc3ncccc3o2)ccc1NC(=O)COc1ccc(C(C)(C)C)cc1,102.3,-11.4,88.2,92.9
OCc1cc2ccccc2o1,nt,-23.6,108.9,90.4
CCC(CC)C(=O)N1CCc2cc(OC)c(OC)cc2C1COc1ccc(F)cc1 (configuration not stated),104.6,nt,108.2,79.1
COc1ccc(NC(=S)NC2CCCCC2)cc1,97.9,nt,91.2,75.6
CC1(C)C(=O)N(CCN2CCC(C(=O)c3ccc(F)cc3)CC2)c2ccccc21,102.4,-13.1,nt,nt

# The list continues.
Molecule,GIV-Gai inh,HCMV UL50-53 inh,Sa growth inh,Sa growth inh second temp
CCn1c(=O)c2c(nc3n2CCN3c2ccc(OC)cc2)n(C)c1=O,100.6,nt,83.7,89.3
Cc1ccc(NC(=O)CN2C(=O)C(C)CSc3ccc(S(=O)(=O)N4CCCC4)cc32)cc1C (configuration not stated),103.8,10.3,nt,nt
Cc1oc(-c2ccc(C(=O)NCc3ccc(N(C)C)cc3)cc2)nc1COc1ccccc1,101.6,nt,108.5,94.1
O=c1[nH]nc(SCCO)c(=O)[nH]1,108.2,-5.0,97.4,90.4
COc1ccc(OC)c(C2CC(=O)Nc3ccc4ccccc4c32)c1 (configuration not stated),113.3,-9.5,109.2,80.3
CCc1ccc(NC(=O)N2CCN(S(=O)(=O)c3cc4c(cc3Cl)NC(=O)C(C)O4)CC2)cc1 (configuration not stated),105.2,-15.6,nt,nt
Cc1cc(C)nc(NC(C(=O)O)C(C)C)n1 (configuration not stated),103.4,-21.8,80.0,85.8
COc1ccc(-c2nn(C)c3sc(C(=O)NC(C)C)cc23)cc1OC,103.7,-12.2,109.9,89.3
COCCN(CCOC)S(=O)(=O)c1ccc(C(=O)Nc2sc3c(c2C(=O)OC)CCN(C)C3)cc1,107.4,nt,130.0,85.3
CC(C)c1ccc(NC(=O)C(NC(=O)/C=C/c2ccc3c(c2)OCO3)c2ccccc2)cc1 (configuration not stated),99.1,nt,152.4,68.5
CCCCNC(=O)CSc1nc2nc(C)c(Cc3ccccc3C)c(C)n2n1,102.3,7.0,114.5,83.9
CN1C(=O)c2c(sc3c2CCCC3)NC1c1ccc(O)cc1 (configuration not stated),110.1,-9.1,99.5,73.2

# Carrying on.
Molecule,GIV-Gai inh,HCMV UL50-53 inh,Sa growth inh,Sa growth inh second temp
CC(C)(C)C(=O)Cn1nnc(N2CCCC2)n1,100.6,-5.5,104.4,91.8
NS(=O)(=O)c1ccc(CCNC(=O)c2nc(SCc3ccccc3F)ncc2Cl)cc1,97.6,-17.2,101.4,76.4
CCSc1ncc2c(=O)n(CC(=O)N3CCCc4ccccc43)cnc2n1,104.4,-14.9,nt,nt
O=C(NCC(c1cccnc1)N1CCOCC1)C(=O)Nc1ccc(Cl)cc1 (configuration not stated),102.6,-26.5,116.0,87.2
O=C1CC(C(=O)Nc2ccc(Cl)cc2)N=C(N2CCc3ccccc32)N1 (configuration not stated),100.5,-16.9,88.6,86.9
COc1ccc(OCC(=O)N2N=C3/C(=C/c4ccco4)CCCC3C2c2ccco2)cc1 (configuration not stated),nt,-2.0,78.9,97.5
Cc1cc(O)c(C(c2ccccc2)N2CCN(c3ccccc3F)CC2)c(=O)n1Cc1ccco1 (configuration not stated),100.4,nt,70.6,93.8
COc1c[nH]n(C2CCCCC2)c(=O)c1=O,105.8,-21.2,32.8,9.3
CCOC(=O)c1cc2c(n(-c3ccc(OC)cc3)c1=O)CCCC2=O,100.0,-25.7,83.8,77.5
Cc1ccc(C2=NN(C(=O)CCC(=O)O)C(Cc3cc4cccc(C)c4nc3Cl)C2)cc1 (configuration not stated),106.4,-15.8,nt,nt
CCCCCCc1cc2cc(-c3nnc(-c4ccccc4)o3)c(=O)oc2cc1O,96.8,-13.5,nt,nt

# Looked up by structure from above (7):
Molecule,GIV-Gai inh,HCMV UL50-53 inh,Sa growth inh,Sa growth inh second temp
CC(C)(C)C(=O)Cn1nnc(N2CCCC2)n1,100.6,-5.5,104.4,91.8
Cc1ccc(C2=NN(C(=O)CCC(=O)O)C(Cc3cc4cccc(C)c4nc3Cl)C2)cc1 (configuration not stated),106.4,-15.8,nt,nt
Cc1cc(O)c(C(c2ccccc2)N2CCN(c3ccccc3F)CC2)c(=O)n1Cc1ccco1 (configuration not stated),100.4,nt,70.6,93.8
NS(=O)(=O)c1ccc(CCNC(=O)c2nc(SCc3ccccc3F)ncc2Cl)cc1,97.6,-17.2,101.4,76.4
CCOC(=O)c1cc2c(n(-c3ccc(OC)cc3)c1=O)CCCC2=O,100.0,-25.7,83.8,77.5
O=C(NCC(c1cccnc1)N1CCOCC1)C(=O)Nc1ccc(Cl)cc1 (configuration not stated),102.6,-26.5,116.0,87.2
CCSc1ncc2c(=O)n(CC(=O)N3CCCc4ccccc43)cnc2n1,104.4,-14.9,nt,nt

# Screening results (PubChem BioAssay)
